Screening results as filed in PubChem.
HNF4A DNA FP = change in binding of human HNF4 alpha to DNA. activity change, % at 10 µM. actives 0.3% (n = 360,000). HNF4a-FITC DNA binding, fluorescence polarization, 1 h. P41235; in the data active = activity change above about 30%, passing the limit was not always enough;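 also: controls were the assay level and a saturating level of protein; the project sought stronger binding though the title names inhibitors; some compounds called inactive have numbers as strong as hits; positive values seem to mean higher polarization but the record does not say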
Vif A3G = inhibitors of Vif binding to APOBEC3G peptide, primary screen, biochemical, TR-FRET, GST-Vif 1-94, biotin-A3G peptide, dose response retest (AID 1117319); actives 0.57% (n = 260,000); inhibition, %, or IC50 in µM where a hit was titrated; TR-FRET GST-Vif / biotin-A3G peptide binding; higher % means a stronger effect; test concentration not given here; strong numbers were not always called active;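 active = above the screen mean plus three standard deviations and confirmed in dose response; inconclusive = results disagree or hit not tested in dose response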;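 also: Vif residues 1-94 fused to GST binding biotinylated APOBEC3G peptide 110-148; 0% = full assay without inhibitor and 100% = GST in place of GST-Vif; retest series ran down from 100 µM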
rRNA inh HTS = inhibitors of bacterial rRNA selective over humanized ribosomes; E. coli WT GFP vs humanized-ribosome RFP mutants, fluorescence, 24 h; stronger effect = lower value; DMSO median 0, no signal -100; GFP signal change (wild-type ribosome), % (no concentration beside the values); actives 1.6% (n = 350,000);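 active = significant combined selectivity score with lowered wild-type GFP, culture density cut under 30%, mutant RFP and density less affected; inactive = any of these conditions unmet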; also: one replicate is shown; some compounds called inactive have numbers as strong as hits
AF4-AF9 inh = MLL-AF4/AF9 protein interaction inhibition. inhibition, % at 10 µM. AID 651704. AlphaScreen, biotin-AF4 peptide binding to FLAG-AF9. actives 0.47% (n = 350,000). P42568;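 active = every replicate reaching a set inhibition limit, whatever the replicate mean, cut at about 25% in these data; inconclusive = mean inhibition reaches that limit but some replicates miss it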;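 also: 0% = plate neutral control median and 100% = total signal loss; the record names both 10 and 1 µM as test concentration; the first replicate is given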
Target sequence (P42568 whole entry, looked up): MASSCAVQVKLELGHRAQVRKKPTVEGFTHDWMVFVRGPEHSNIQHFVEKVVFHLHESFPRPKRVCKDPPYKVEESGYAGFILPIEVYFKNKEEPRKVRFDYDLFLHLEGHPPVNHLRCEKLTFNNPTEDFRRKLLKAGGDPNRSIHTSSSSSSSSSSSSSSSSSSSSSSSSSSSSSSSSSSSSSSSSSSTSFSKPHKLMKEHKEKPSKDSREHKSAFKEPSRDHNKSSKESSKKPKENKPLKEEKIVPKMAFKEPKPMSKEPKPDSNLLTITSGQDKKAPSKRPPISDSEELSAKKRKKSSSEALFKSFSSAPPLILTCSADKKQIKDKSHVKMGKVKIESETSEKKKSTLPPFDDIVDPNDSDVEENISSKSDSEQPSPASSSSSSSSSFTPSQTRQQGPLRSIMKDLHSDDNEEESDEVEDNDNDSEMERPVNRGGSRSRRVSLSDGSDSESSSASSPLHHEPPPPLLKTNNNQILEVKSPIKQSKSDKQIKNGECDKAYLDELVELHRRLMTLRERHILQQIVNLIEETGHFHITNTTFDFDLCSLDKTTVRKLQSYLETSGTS
E coli growth = blocks Escherichia coli growth. OD600, 23 h; stronger effect = lower value. actives 0.21% (n = 330,000). OD600 absorbance (concentration not given with the values). AID 1053175;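 active = OD600 absorbance below the run mean of sample wells minus 3.6 SD, in any replicate, cut at about 0.56 in these data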;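 also: stock transfer was 300 nL into about 60 µL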
FGF22 binding = shifts melting point of recombinant human FGF22 | recombinant FGF22 thermal shift, SYPRO orange fluorescence; percent of sucrose octasulfate shift, DMSO zero | AID 651658 | calls only at 9.99 µM | actives 1.5% (n = 340,000);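 active = melting point raised past a set limit in the mean and every replicate; inconclusive = no clear call; three in four hits are not shown here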
Target sequence (Q9HCT0 whole entry, looked up): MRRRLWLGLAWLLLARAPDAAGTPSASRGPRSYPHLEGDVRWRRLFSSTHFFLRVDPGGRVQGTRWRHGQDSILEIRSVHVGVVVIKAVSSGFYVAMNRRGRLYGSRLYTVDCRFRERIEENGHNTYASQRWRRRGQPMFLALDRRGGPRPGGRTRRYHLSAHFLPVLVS
ALR inh = inhibitors of human sulfhydryl oxidase ALR; P55789; purified ALR, DTT oxidation, H2O2 HRP-luminol luminescence; actives 3.8% (n = 290,000); AID 485317; inhibition, % (no concentration beside the values);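 active = mean and each replicate at 75% or more; inconclusive = only one of the two met; inactive = neither met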;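 also: stock transfer was 7.5 nL into about 7.5 µL; 0% = neutral wells and 100% = wells with inactivated enzyme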
Target sequence (P55789 whole entry, looked up): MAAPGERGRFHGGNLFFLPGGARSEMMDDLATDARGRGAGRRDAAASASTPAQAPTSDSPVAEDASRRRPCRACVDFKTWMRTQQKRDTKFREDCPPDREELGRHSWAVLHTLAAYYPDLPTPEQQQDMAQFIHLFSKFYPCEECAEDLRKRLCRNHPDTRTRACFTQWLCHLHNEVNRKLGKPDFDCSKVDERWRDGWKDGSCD
rRNA inh HTS OD600 = further read-out of rRNA inh HTS, marked with its call; OD600 change, %; measured here: OD600 growth;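 optical density of the mix in the first replicate; 0 = DMSO median and -100 = no signal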
rRNA inh HTS RFP = also measured in rRNA inh HTS; calls as there; RFP signal change, %; measured here: RFP humanized mutant strains;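 first replicate; 0 = DMSO median and -100 = no signal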
The depositor's hits bear a star; i = inactive; ? = inconclusive; . = no result given. These rows are one share of the data; rates above refer to the full screens.

SMILES | HNF4A DNA FP | Vif A3G | rRNA inh HTS | rRNA inh HTS OD600 | rRNA inh HTS RFP | AF4-AF9 inh | E coli growth | FGF22 binding | ALR inh
O=C(O)c1cccc2c1C(=O)c1ccccc1C2=O | 0.7 | 6.9% | 2.8 | -15.6 | 2.5 | -1.6 | 0.672 | i | 3.4
CCNC(=S)NS(=O)(=O)c1ccc(C)cc1 | -2.7 | 24.8% | . | . | . | . | 0.656 | . | 4.2
N#C[C@@H]1[C@@H](c2ccc(-c3cccc(F)c3)cc2)[C@@H](CO)N1S(=O)(=O)c1cccc(F)c1 | . | . | -9.4 | -38.6 | 16.6 | -1.6 | . | i | .
CO/N=C(\C)C(Cc1ccc(Cl)nc1)Cc1ccc(Cl)nc1 | -1.2 | 3.7% | 7.8 | 7.8 | 0.5 | -4.8 | . | i | -6.0
N#Cc1c(F)cccc1N1CCC(C#N)CC1 | -3.5 | ? | 1.4 | -0.7 | 1.7 | -2.1 | 0.65 | i | -5.7
O=C(O)CCCCCN1C(=O)CCC1=O | 4.4 | ? | . | . | . | . | 0.736 | . | -4.2
O=C(CN1CC(=O)Oc2ccccc21)OCC(=O)c1ccccc1 | -2.4 | 5.1% | . | . | . | . | 0.659 | . | 24.8
CCC(=O)NC(=S)Nc1cccc(Cl)c1N1CCCC1 | -5.1 | -1.6% | -12.2 | 0.0 | 4.4 | -0.8 | 0.741 | i | .
C[C@@H]1CN([C@H](C)CO)C(=O)c2cccc(NS(=O)(=O)c3cccs3)c2O[C@H]1CN(C)Cc1ccncc1 | . | . | 1.2 | 4.8 | -1.0 | 0.8 | . | i | .
CCCCNC(=O)C1C(c2ccc(C(F)(F)F)cc2)=Nc2ccccc2N1C(=O)c1cccc2ccccc12 (centres undefined) | 8.2 | . | 4.6 | 7.4 | -5.0 | 1.9 | . | i | .
Cc1nn(CC(=O)NCc2ccccc2)c(=O)c2cccn12 | 1.9 | -5.8% | 11.1 | 12.2 | -0.9 | 0.9 | 0.722 | i | -0.4
Cc1cccc(-n2cc(CN3CCN(Cc4nccn4C)CC3)c(-c3cccc(F)c3)n2)c1 | -2.9 | 0.9% | -20.6 | -37.8 | -0.1 | 21.2 | 0.682 | i | -7.0
CC(C)C(=O)N1CCc2cc(-c3csc(N)n3)ccc21 | 17.4 | 2.0% | 4.3 | -3.2 | -1.7 | 7.8 | 0.704 | i | -1.2
CCOP(=O)(Cc1ccc(C(C)(C)CC(C)=O)o1)OCC | 1.4 | 0.1% | 15.2 | 3.2 | 1.7 | -1.4 | 0.614 | i | 9.8
Cc1ccc(S(=O)(=O)N(C)C[C@H]2Oc3c(NS(C)(=O)=O)cccc3C(=O)N([C@H](C)CO)C[C@H]2C)cc1 | . | . | -5.0 | -0.3 | -1.6 | 1.6 | . | i | .
CCOC(=O)c1cn[nH]c1NC(=S)Nc1ccc(Cl)cc1 | 0.3 | -5.5% | -40.6* | -17.8* | -11.1* | -1.3 | 0.657 | i | -7.3
CCOC(=O)N1CCN(Cc2nc3cc([N+](=O)[O-])ccc3n2C)CC1 | 2.5 | -5.5% | 9.6 | 12.3 | 0.1 | -1.9 | 0.695 | i | .
Cc1nnc(-c2cnn(-c3ccccc3)c2N)n1Cc1ccc(F)cc1 | -3.8 | ? | . | . | . | . | 0.707 | . | -2.2
CCCN(CC(=O)Nc1ccccc1OC)C(=O)c1cc(-c2cccs2)nn1-c1ccccc1 | 0.9 | -3.0% | -5.3 | -1.4 | 1.3 | -6.3 | 0.742 | i | .
O=C(CBr)c1ccc([N+](=O)[O-])c(CS(=O)(=O)c2ccc(Cl)cc2)c1 | -2.5 | . | 8.5 | 8.9 | -0.5 | -1.2 | . | i | 7.4
CC(NCC(=O)Nc1ccccc1C(=O)NC1CC1)c1ccc(S(C)(=O)=O)cc1 (centres undefined) | 0.4 | -6.6% | 6.7 | 2.1 | -3.1 | -2.3 | 0.688 | i | -4.5
Cc1ccccc1Cc1ccc(Cl)nn1 | 5.3 | -7.1% | 5.4 | 4.9 | -5.0 | -0.9 | 0.644 | i | -2.1
CC(C)NC(=O)N1[C@H](CO)[C@H](c2ccc(C#CC3CCCC3)cc2)[C@@H]1C#N | . | . | -25.9 | -60.5 | -6.0 | -22.5 | . | i | .
CCCCC(=O)Nc1nnc(C)s1 | 2.8 | 1.3% | . | . | . | . | 0.711 | . | -14.0
COCC#Cc1ccc2c(c1)O[C@@H](CN(C)C(=O)c1ccccc1F)[C@H](C)CN([C@@H](C)CO)S2(=O)=O | . | . | -3.3 | -10.2 | -2.1 | -2.2 | . | i | .
O=C(CN1CCN(S(=O)(=O)c2ccc(F)cc2)CC1)c1ccc(O)c(O)c1 | -3.7 | 20.1µM* | 20.2 | 18.2 | -0.2 | -1.4 | 0.716 | . | .
CCCC(=O)c1ccc(N2CCCC2)c(F)c1 | 1.6 | -4.3% | . | . | . | . | 0.726 | . | -6.1
CC(C)CN(C(=O)CCc1ccccc1Cl)c1c(N)n(Cc2ccccc2)c(=O)[nH]c1=O | -1.4 | -1.6% | 0.9 | -0.8 | 1.8 | 0.9 | 0.67 | i | 1.1
COc1ccc(S(=O)(=O)N(C)C[C@H]2Oc3ccc(NC(=O)c4ccncc4)cc3CC(=O)N([C@H](C)CO)C[C@@H]2C)cc1 | . | . | -2.8 | -6.0 | -0.6 | 0.1 | . | i | .
CC1=CC(C)(C)NC(=S)N1c1ccc(Cl)cc1 | 0.1 | -2.1% | -2.9 | -7.1 | -6.5 | -1.1 | 0.72 | i | .
CNC(=O)Cn1nc(C)c(S(=O)(=O)N2CCOCC2)c1C | -0.9 | . | 3.4 | 8.3 | -3.0 | -1.5 | 0.684 | i | -17.9
O=C(Nc1ccc(Cl)cc1)OCc1ccccn1 | -11.3 | ? | . | . | . | . | 0.666 | . | .
CCOC(=O)c1ccc(-c2ccc3c(=O)c4ccccc4n(C)c3c2)cc1F | -13.7 | . | -7.1 | -4.2 | 3.6 | -25.0 | 0.693 | i | 0.0
CCOC(=O)c1cc(-c2ccccc2)sc1NC(=O)C(C)Sc1nnc(N)s1 (centres undefined) | 0.5 | 15.4% | . | . | . | . | 0.662 | . | -16.5
COc1ccc(NC(=O)Nc2ccc3c(c2)OC[C@H](C)NC[C@H](C)[C@@H](OC)CN(C)C3=O)cc1 | . | . | -2.4 | -2.6 | 0.7 | 3.8 | . | i | .
CC(C)NC(=O)CSCc1c(Cl)cccc1Cl | -1.3 | -7.9% | . | . | . | . | 0.744 | . | -13.0
CCC(=O)c1ccccc1OCCCN1CCC(Cc2ccccc2)CC1 | -3.3 | . | -21.2 | -22.5 | -4.6 | 5.5 | 0.665 | i | -32.9
Cc1ccc(-c2ccc3c(c2)O[C@H](CN(C)C)[C@H](C)CN([C@H](C)CO)S3(=O)=O)cc1 | . | . | 1.4 | 0.1 | -0.9 | -10.0 | . | i | .
O=C(NNC(=O)c1cc(-c2cccc(Br)c2)nc2ccccc12)c1csc(N2CCOCC2)n1 | 6.8 | -1.8% | -3.4 | 6.7 | 5.8 | -5.6 | 0.688 | i | -14.6
CCN(CC)S(=O)(=O)c1ccc(S(=O)(=O)N2CCC(N3CCCCC3)CC2)cc1 | 2.8 | . | 9.8 | 11.9 | 1.0 | -1.9 | . | i | 3.8
C[C@@H]1CN([C@H](C)CO)S(=O)(=O)c2ccc(-c3cccc(F)c3)cc2O[C@H]1CN(C)C(=O)C1CC1 | . | . | -5.0 | -19.1 | 0.5 | 2.1 | . | i | .
CO/N=C/c1cccn1-c1nccc(OC)c1C#N | 0.4 | 9.0% | 9.9 | 12.7 | 0.0 | -0.2 | . | . | 1.3
O=C(Nc1cccc2ncccc12)c1ccc2c(c1)OCCO2 | 0.0 | 0.7% | . | . | . | . | 0.645 | . | -22.2
O=C(CCN1CCCCC1)N[C@@H]1CC[C@@H](CCn2cc(-c3ccccc3)nn2)O[C@H]1CO | . | . | 1.1 | 1.6 | -0.7 | -0.1 | . | i | .
CCCc1nnc(NC(=O)CCC(=O)NCCc2ccc(Cl)cc2)s1 | 1.4 | . | 8.8 | 6.8 | -1.5 | -0.1 | 0.704 | i | -1.5
O=C(OCC(=O)N1CCCC1)c1ccc(O)cc1 | 0.6 | . | 2.5 | -3.4 | -4.6 | -0.9 | . | i | -0.2
S=C(Nc1ccccc1Cl)N1CCCC1 | 3.2 | -4.5% | 8.6 | 9.5 | 5.3 | -1.1 | 0.692 | i | .
CN(C)c1ccc(CNn2cnnc2SCc2ccc(F)cc2)cc1 | -2.4 | 2.5% | . | . | . | . | 0.699 | . | 0.8
Cn1c(=O)[nH]c(=O)c2c1nc(NCCCn1ccnc1)n2CCOc1ccccc1 | 1.1 | 1.2% | . | . | . | . | 0.723 | . | 10.2
CCc1cccc(CC)c1-n1c(-c2cccnc2)n[nH]c1=S | -2.1 | -4.1% | 10.0 | -3.4 | -3.9 | -2.2 | 0.713 | . | 30.9
N#CCSc1ccccc1NC(=O)COC(=O)CCNC(=O)c1ccc([N+](=O)[O-])cc1 | 3.6 | 0.7% | 6.5 | 8.2 | 1.0 | -0.7 | 0.642 | i | .
Cc1ccc(-c2nnn3c2nc(NCCc2ccc(S(N)(=O)=O)cc2)c2ccccc23)cc1 | 9.2 | . | 5.1 | 9.5 | 2.1 | -9.7 | . | i | -3.7
COc1ccc(C(Nc2ccc(S(=O)(=O)NCC3CCCO3)cc2)C(=O)NC(C)(C)C)cc1OC (centres undefined) | -0.1 | -1.2% | 8.1 | 14.5 | 1.8 | 1.9 | 0.733 | i | -5.3
O=C(CSc1nnc(-c2ccccc2)o1)Nc1ccccc1F | 2.3 | -2.4% | 2.5 | 2.1 | 0.3 | -1.6 | 0.73 | i | .
CC1(C(=O)NNC(=O)C2CCCCC2)CC1(Cl)Cl (centres undefined) | -0.6 | 12.7% | -26.9* | 13.9* | 2.9* | -2.2 | 0.685 | i | 0.2
COc1ccc(OC)c(C2=NOC(C(=O)NCc3ccco3)C2)c1 (centres undefined) | -1.0 | 0.4% | . | . | . | . | 0.685 | . | -0.7
O=C(COc1ccc(F)cc1)NCCN1CCCC1 | 5.8 | . | 28.1 | 20.9 | 3.9 | 4.0 | 0.649 | i | 1.0
COc1ccc(C(CCO)NC(=O)c2cccs2)cc1OC (centres undefined) | -0.4 | 4.3% | 7.8 | 9.6 | 0.8 | -2.8 | 0.7 | . | -11.9
COc1cc(/C=C/C(=O)OCC(=O)Nc2c(C)n(C)n(-c3ccccc3)c2=O)cc(OC)c1OC | 4.6 | . | 0.5 | 7.2 | 3.3 | 0.9 | 0.714 | i | .
CN(C)C(=S)NC(=O)C12CC3(C)CC(C)(CC(C)(C3)C1)C2 | 1.1 | 27.3% | . | . | . | -0.4 | 0.696 | i | 3.2
COc1ccc2[nH]c3c(=O)n(CCCN4CCOCC4)cnc3c2c1 | 2.5 | -5.2% | 5.1 | 1.4 | -1.6 | 4.8 | 0.694 | i | 0.3
CCC(=O)Nc1ccc2c(c1)C(=O)N(C)C[C@@H](OC)[C@H](C)CN[C@H](C)CO2 | . | . | -0.1 | 2.5 | -0.8 | -2.0 | . | i | .
